# High-throughput results deposited in PubChem BioAssay by National Center for Advancing Translational Sciences (NCATS).
# SARS PLpro yeast – SARS-CoV PLP inhibition in yeast | S. cerevisiae expressing SARS-CoV PLpro, growth rescue; control for the full effect not named in the record | AID 485353 | 0.19% of 330,000 active | Potency, µM (top dose mostly 32.9 µM), without a hit: top-dose activity, positive = growth rescue; note: 0% is about no effect; nearly all actives have a fitted effect of over 55% in size; growth read by luminescence after 48 h
# LASV entry inh – inhibitors of Lassa virus binding or cell entry. Lassa virus pseudotype entry inhibition, cell reporter; control for the full effect not named in the record. Potency, µM (titrated, usually from 37.9 µM), without a hit: at the highest dose activity change, negative = inhibition, most hits filed as inhibitors. 1.2% of 300,000 active; active means well fitted inhibition curve with a large enough effect; inconclusive means small, poorly fitted or top-dose-only effect, or effect the other way; inactive means flat fitted curve, though single readings scatter; tested in HEK293 cells; note: % is set by controls: 0 for no effect and ±100 for the full control effect; nearly all actives have a fitted effect of over 50% in size; luciferase read-out
# NS1 function inh – influenza NS1 inhibition; S. cerevisiae slowed by influenza A NS1, growth recovery by OD600; Potency, µM (doses to about 46.1 µM), inactives show at the top dose activity, positive = more growth; 0.4% of 270,000 active; AID 2326; note: actives are rising curves; nearly all actives have a fitted effect of over 50% in size
#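 Growth recovery, yeast-based: influenza A NS1 expressed in S. cerevisiae causes slow growth, and suppressors are detected by OD600. The parent strain without NS1 is used as positive control.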
# Cruzain inh noDet – blocks cruzain activity in detergent-free assay | P25779 | Potency, µM, inactives show max response, negative = inhibition, usual class: inhibitors | purified cruzain, Z-FR-AMC fluorescence, no detergent | 2.3% of 200,000 active; active = well fitted curve in the direction sought with a large enough effect; inconclusive = small, poorly fitted or top-dose-only effect, or another doubt; inactive = no such curve, though single readings can be large; an effect the other way counts as inactive or inconclusive;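 note: plate controls were enzyme without inhibitor for no effect and buffer without enzyme for full effect; nearly all actives have a fitted effect of over 40% in size; top concentration of the series not given in the record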
# Target sequence (P25779 123-467 limits assumed): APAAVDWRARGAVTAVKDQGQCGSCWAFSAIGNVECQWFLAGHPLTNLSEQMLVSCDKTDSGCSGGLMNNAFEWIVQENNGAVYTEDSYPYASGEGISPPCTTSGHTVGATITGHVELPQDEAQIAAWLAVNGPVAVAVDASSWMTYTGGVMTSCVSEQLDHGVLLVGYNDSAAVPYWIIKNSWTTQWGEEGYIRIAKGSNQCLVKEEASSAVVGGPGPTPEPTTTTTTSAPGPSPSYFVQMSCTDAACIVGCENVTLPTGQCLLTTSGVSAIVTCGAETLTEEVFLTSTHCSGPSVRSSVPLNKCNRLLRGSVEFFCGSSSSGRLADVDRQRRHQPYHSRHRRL
#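 Purified cruzain at 1.5 nM, pre-incubated 15 min with compound at room temperature in 100 mM sodium acetate pH 5.5, 5 mM DTT, 0.00005% Triton X-100. Reaction started with 2 uM Z-FR-AMC; AMC fluorescence increase over 60 s gives rate.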
# RE007 growth inh – less growth of the S. pombe RE007 Vpr strain; 0.21% of 360,000 active; S. pombe RE007 Vpr strain, BacTiter-Glo ATP luminescence, 24 h; control for the full effect not named in the record; Potency, µM (highest dose often 92.2 µM), inactives show top-dose activity change, negative = less growth; AID 651644; active = well fitted falling curve with a large enough effect; inconclusive = small, poorly fitted or top-dose-only effect; inactive = no such curve, though single readings can be large or run the other way;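 note: % is set by controls: 0 for no effect and ±100 for the full control effect; nearly all actives have a fitted effect of over 50% in size; the assay follows cell death caused by Vpr and the record does not say whether a fall means rescue or toxicity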
#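 Fission yeast RE007 carrying one integrated HIV-1 vpr copy, seeded at OD 0.01 in PMG+AL medium with 23 nL pinned compound. Grown 24 h at 30 degrees; viability read by BacTiter-Glo luminescence after 5 min.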
# StopGo reporter – lowers the luciferase signal of an FMDV 2A StopGo reporter. human cells with a luciferase reporter of 2A StopGo recoding; control for the full effect not named in the record. Potency, µM (titrated, usually from 57.9 µM), inactives show at the top dose signal change, negative = less light. 1.2% of 410,000 active. AID 1159524; active = well fitted falling curve with a large enough effect; inconclusive = small, poorly fitted or top-dose-only effect; inactive = no such curve, though single readings can be large or run the other way; tested in HEK293T cells; note: % is set by controls: 0 for no effect and ±100 for the full control effect; nearly all actives have a fitted effect of over 45% in size; luciferase light after 4 h
# Cruzain Triton – cruzain (T. cruzi) inhibition with detergent; P25779; purified cruzain, Z-FR-AMC fluorescence, 0.01% Triton; Potency, µM, without a hit: max response, negative = inhibition, hits mostly inhibitors; 0.43% of 200,000 active; AID 1478; active = well fitted curve in the direction sought with a large enough effect; inconclusive = small, poorly fitted or top-dose-only effect, or another doubt; inactive = no such curve, though single readings can be large; an effect the other way counts as inactive or inconclusive;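 note: plate controls were neutral wells for no effect and buffer without enzyme for full effect; nearly all actives have a fitted effect of over 40% in size; top concentration of the series not given in the record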
#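 15 min RT preincubation of 1.5 nM cruzain with compound, then 2 uM Z-FR-AMC added; kinetic AMC fluorescence, 60 s delta. Triton X-100 0.01%, pH 5.5.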
# Marburg entry inh – Marburg virus entry inhibition; Potency, µM (highest dose often 37.8 µM), for the others: top-dose activity change, negative = inhibition, actives largely listed as inhibitors; Marburg virus pseudotyped entry inhibition, cell reporter; control for the full effect not named in the record; about a third of the inactives were read at about 46 µM; 1.8% of 300,000 active; active = well fitted inhibition curve with a large enough effect; inconclusive = small, poorly fitted or top-dose-only effect, or effect the other way; inactive = flat fitted curve, though single readings scatter; tested in HEK293 cells; about a fifth of its hits are not listed in these tables; note: % is set by controls: 0 for no effect and ±100 for the full control effect; luciferase read-out
# Numbers without * were called inactive; u = inconclusive; x = not tested or not shown; & = joins results of further samples; [ ] = remark or other dose. Unless noted, calls come from the whole dose curve; as a rule, active means well fitted rising curve with a large enough effect; inconclusive means small, poorly fitted or top-dose-only effect; inactive means no such curve, though single readings can be large or run the other way. Potency is the fitted concentration of half-maximal effect.
molecule	SARS PLpro yeast	LASV entry inh	NS1 function inh	Cruzain inh noDet	RE007 growth inh	StopGo reporter	Cruzain Triton	Marburg entry inh
O=C(Nc1ccccc1O)c1cccc(NC(=O)c2ccco2)c1	0%	x	-1%	x	-3%	1%	x	x
N#Cc1ccc(-c2nc3ccccc3c(=O)n2O)cc1	-3%	x	-90%	x	-17%	2%	x	x
O=C(OCC(=O)N1CCOCC1)c1ccc(N2CCOCC2)c([N+](=O)[O-])c1	-4%	10%	x	x	15%	-4%	x	16%[46.1 µM]
O=C(CSc1nc2c(cnn2-c2ccc(F)cc2)c(=O)[nH]1)N1N=C(c2cccs2)CC1c1ccc(F)cc1 (stereo not given)	-3%	-11%	5%	u	x	x	-12%	2%
O=C(NCc1ccccc1)N[C@@H](Cc1c[nH]c2ccccc12)C(=O)O	5%	0%	-16%	-5%	10%	24%	1.5%	u
C/C(=N\NC(=O)c1nn(C)cc1Br)c1ccc(NC(=O)c2ccncc2)cc1	5%	u	6%	11%	-2%	-4%	-5.7%	u
O=C(/C=C/c1ccc2c(c1)OCO2)Nc1nc2ccccc2s1	14%	u	2%	-11%	-23%	-15%	-0.5%	u
COc1ccccc1NC(=O)c1ccc(NC(=O)COC(=O)C2(C)CC2(Cl)Cl)cc1 (stereo not given)	-3%	-18%	-2%	-10%	-9%	35µM*	-4.8%	-32%
C/C(=N\NC(=O)C1(C)CC1(Br)Br)c1ccc(NC(=O)C2CCC2)cc1 (stereo not given)	-8%	u	9%	-11%	11%	u	-2.6%	-10%
Cc1cccc(N(C)C(=O)c2cc(S(=O)(=O)N3CCCCC3)c[nH]2)c1	-7%	-1%[46.1 µM]	1%	-2%	6%	-24%&-13%	-1.5%	x
Cc1ccc(NC(=O)CSCC(=O)Nc2ccc(S(=O)(=O)N3CCCC3)cc2)cc1	-2%	1%	x	x	8%	-9%	x	u
COc1ccccc1CN1CCN(C(=O)COc2cccc(C)c2)CC1	0%	u	-9%	-1%&4%	21%	-20%&-7%	6.7%&1.9%	19%
COc1ccccc1NC(=O)CCS(=O)(=O)c1cc2c(cc1Cl)NC(=O)CO2	-7%	x	2%	x	1%	-2%	x	x
CCCCOc1nc(N2CCOCC2)nc(C)c1[N+](=O)[O-]	0%	u	-37%	x	-2%	-6%	x	-26%[46.1 µM]
CCOCCn1c(CN(Cc2ccccc2)Cc2ccccc2)nc2c1c(=O)[nH]c(=O)n2C	5%	-8%	-17%	u	13%	u	-1.8%	-3%
O=C1C2C3C=CC(C3)C2C(=O)N1c1ccc2c(c1)OCO2 (stereo not given)	1%	6%	-11%	6%	1%	x	2.1%	-18%
CC1=C(C(N)=O)C(c2ccc(Cl)c(Cl)c2)n2ncnc2N1 (stereo not given)	1%	-3%[46.1 µM]	-2%	x	-18%	-12%	x	0%[46.1 µM]
C[C@@H](C(=O)Nc1ccc2ccccc2c1)[C@H]1C[C@]1(C)[C@H](NS(=O)(=O)c1ccc(-c2ccccc2)cc1)c1ccccc1	5%	-21%	u	3.2µM*	13%	3%	0.7%&4.2%	12µM*
COc1cc(-n2ccnc2SC)c(Cl)cc1Cl	3%	1%	-29%	7%	-9%	-24%	-0.4%	13%
Cc1cc(NCCCN2CCOCC2)n2nc(C)c(-c3ccccc3)c2n1	8%	4%	4%	11%	-19%	-16%	6.7%	u
COc1cc(/C=C2/C(=O)NN(c3cccc(Cl)c3)C2=O)cc(OC)c1O	11%	x	u	x	-14%	u	x	x
COc1ccc(C(=O)N2CCC(O)(c3ccc(F)cc3)CC2)cc1OC	4%	-1%	3%	2%	-2%	14%	1.3%	23%[46.1 µM]
O=C(O)/C=C/C(=O)NCCC(c1ccccc1)c1ccccc1	1%	2%	0%	x	-10%	-8%	x	-13%[46.1 µM]
COC(=O)c1ccccc1NC(=O)NCC1CCCO1 (stereo not given)	-2%	u	1%	2%	18%	9%	-0.3%	6%
CC(C)(C)OC(=O)N/N=C/c1ccc(N2CCOCC2)s1	8%	1.8µM*	u	8%	6%	12%	-5.2%	11%
CCC(=O)Nc1ccccc1N1CCN(c2ccc(F)cc2)CC1	0%	0%[46.1 µM]	9%	x	15%	-15%	x	-8%[46.1 µM]
CC(Oc1cc2oc(=O)cc(-c3ccccc3)c2cc1Cl)C(=O)NCC1CCC(C(=O)O)CC1 (stereo not given)	4%	x	6%	x	9%	-16%	x	x
COc1cccc(NC(=O)Nc2nnc(CC(=O)NCc3ccccc3)s2)c1	0%	x	-4%	x	-4%	-9%	x	x
O=c1c2sccc2n(Cc2cc(=O)n3ccccc3n2)c(=O)n1-c1cccc(C(F)(F)F)c1	x	-13%[46.1 µM]	x	-3%	x	-14%	-4.4%	8%[46.1 µM]
O=C(CCCCCn1c(=S)[nH]c2ccc(N3CCOCC3)cc2c1=O)NCCc1ccccc1	-16%	19%	5%	-3%	-14%	22%	1.0%	9%
Cc1ncc(CSc2nnnn2-c2ccccc2)c(N)n1	-2%	-2%	1%	-11%	123%	x	-1.3%	21%
O=C(c1ccccc1)N1CCCCC(S(=O)(=O)c2ccccc2)C1=O (stereo not given)	9%	10%	1%	-1%	4%	x	-4.2%	24%
CC(OC(=O)c1ccc(-n2cnnn2)cc1)C(=O)N(C)c1ccccc1 (stereo not given)	3%	-35%	x	x	13%	-13%	x	-8%
CCNC(=O)c1cccc(NC(=O)C2CC(=O)N(CCc3ccccc3)C2)c1 (stereo not given)	1%	-1%	x	x	-6%	-11%	x	-9%
CCc1ccc(C2CC(=O)c3c([nH]c(C(=O)OC4CCCCCC4)c3C)C2)cc1 (stereo not given)	x	18%[46.1 µM]	x	2%	x	-14%	1.1%	3%[46.1 µM]
NC(=O)Nc1ccc(C(=O)OCC(=O)NC2CCCCC2)cc1	1%	3%	5%	x	-2%	11%	x	-2%
C=CCn1c(SCC(=O)N(C)c2c(N)n(Cc3ccccc3)c(=O)[nH]c2=O)nnc1-c1ccccc1OC	-5%	3%	2%	x	9%	6%	x	31%
O=C(CSc1nnc(-c2cccs2)n1-c1ccccc1)NCc1ccco1	-3%	0%	-7%	-5%	1%	-25%	0.4%	15%
O=C(/C=C/c1ccc(F)cc1)NC(=S)NNC(=O)c1cccnc1	-2%	-8%	-18%	2%	-10%	-6%	-14%	1%
COc1cccc(-c2n[nH]c3c2C(c2ccccn2)N(C)C3=O)c1 (stereo not given)	x	13%[46.1 µM]	x	3%	x	-7%	-0.6%	-7%[46.1 µM]
CC(=O)C1=C(C)NC(=O)CC1c1ccccc1Cl (stereo not given)	1%	19%[46.1 µM]	x	x	22%	-11%	x	15%[46.1 µM]
CCC(=O)c1ccccc1OCCCN1C(=O)NC(C)(C)C1=O	-2%	0%	0%	-6%	-5%	-8%	2.8%	2%
CN(CC1COc2ccccc2O1)C(=O)CSc1nncs1 (stereo not given)	2%	0%	x	x	4%	18%	x	8%
CCOC(=O)c1ccc(NC(=O)Cn2cc(C(=O)c3ccc(Cl)cc3)c(=O)c3ccc(C)nc32)cc1	x	20%[46.1 µM]	x	13%	x	-9%	-5.5%	x
Clc1ccc(Sc2cc(Cl)c(-c3ccccc3)nn2)cc1	-13%	-22%	-38%	4%	20%	-10%	-2.8%	u
Cc1ccccc1CN1CCN(CC(=O)NCc2ccco2)C1=O	-2%	0%	-2%	15%	7%	-7%	2.6%	-3%
CC1=C(C(=O)Nc2ccc(C(=O)NCCCN3CCCCC3)cc2)SCCO1	7%	x	1%	x	1%	10%	x	x
COc1ccc(CN(Cc2cccn2C)S(=O)(=O)c2ccc(F)cc2)cc1	-1%	-29%[46.1 µM]	0%	x	-3%	-10%	x	u
Cc1cccc(C)c1NC(=O)c1cc(S(=O)(=O)N2CCc3ccccc3C2)ccc1F	x	u	x	u	x	u	0.7%	x
Cc1ccc(C(=O)CSc2nc(-c3ccccc3)cc(=O)[nH]2)cc1	1%	12%[46.1 µM]	6%	x	4%	3%	x	9%[46.1 µM]

# Additional compounds follow:
molecule	SARS PLpro yeast	LASV entry inh	NS1 function inh	Cruzain inh noDet	RE007 growth inh	StopGo reporter	Cruzain Triton	Marburg entry inh
CCCCNC(=O)CNC(=O)c1cccs1	-3%	6%	1%	4%	1%	32%[activator]	4.1%	12%
Cc1onc(-c2c(F)cccc2Cl)c1-c1nnc(-c2ccc(C(F)(F)F)cc2)o1	-1%	u	u	x	1%	u	x	u
Cc1ccc(NC(=S)N(CCCN2CCOCC2)Cc2ccco2)cc1Cl	-2%	u	-5%	0%	-5%	-2%	-3.6%	u
CC1=CC(C)(C)n2c(O)c(N=NC(N)=S)c3c(C)c(C)cc1c32	1%	x	-4%	x	-4%	-30%	x	x
COc1ccc2nc(N3C(=O)CNC3=S)sc2c1	-2%	-17%	-59%	x	-20%	25%	x	u
COC(=O)c1ccc(Sc2ccccc2NS(=O)(=O)c2ccc(C)cc2)nc1	6%	22%	u	u	-10%	-7%	-0.2%	16%
O=C(CSc1nc(=O)n(CCCN2CCOCC2)c2c1CCCC2)Nc1cccc([N+](=O)[O-])c1	-9%	6%	x	x	-11%	-13%	x	-19%
O=S(=O)(NCCSCc1ccc(Cl)cc1Cl)c1ccc2c(c1)OCCO2	-24%	1%	-34%	2%	-12%	23%	-1.4%	-17%[46.1 µM]
CC1CC(C)CN(S(=O)(=O)c2ccc3c(c2)CC(C)N3C(=O)C2CC2)C1 (stereo not given)	-31%	x	-13%	x	-6%	-25%	x	x
Cc1ccc2[nH]c(=O)c(CN(Cc3cccs3)S(=O)(=O)c3ccc4c(c3)OCCO4)cc2c1	14%	0%	0%	u	0%	-8%	-7.3%	-26%
CCC(Oc1ccccc1)C(=O)Nc1nnc(S(=O)(=O)Nc2ccccc2)s1 (stereo not given)	-4%	15%[46.1 µM]	12%	-6%	-3%	1%&-9%	-0.8%	x
